Compound activity from PubChem BioAssay.
TRPML1 inh = blocks the human TRPML1 channel | Q9GZU1 | TRPML1-inducible cells, Ca2+ dye fluorescence, FDSS; active compounds read low; inhibition of EC80 agonist-evoked calcium signal | activity change, negative = inhibition, % (no concentration beside the values) | hit rate 0.02% among 390,000; in the data active means activity change below about -50%; inconclusive means about -30% to -50%; inactive means above about -30%;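 note: stimulus is agonist 54-4 at its EC80 concentration; % is set by controls: 0 for no effect and ±100 for the full control effect; compound concentration not given in the record; the text of the record puts the active cut at -80%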
Target sequence (Q9GZU1 whole entry, looked up): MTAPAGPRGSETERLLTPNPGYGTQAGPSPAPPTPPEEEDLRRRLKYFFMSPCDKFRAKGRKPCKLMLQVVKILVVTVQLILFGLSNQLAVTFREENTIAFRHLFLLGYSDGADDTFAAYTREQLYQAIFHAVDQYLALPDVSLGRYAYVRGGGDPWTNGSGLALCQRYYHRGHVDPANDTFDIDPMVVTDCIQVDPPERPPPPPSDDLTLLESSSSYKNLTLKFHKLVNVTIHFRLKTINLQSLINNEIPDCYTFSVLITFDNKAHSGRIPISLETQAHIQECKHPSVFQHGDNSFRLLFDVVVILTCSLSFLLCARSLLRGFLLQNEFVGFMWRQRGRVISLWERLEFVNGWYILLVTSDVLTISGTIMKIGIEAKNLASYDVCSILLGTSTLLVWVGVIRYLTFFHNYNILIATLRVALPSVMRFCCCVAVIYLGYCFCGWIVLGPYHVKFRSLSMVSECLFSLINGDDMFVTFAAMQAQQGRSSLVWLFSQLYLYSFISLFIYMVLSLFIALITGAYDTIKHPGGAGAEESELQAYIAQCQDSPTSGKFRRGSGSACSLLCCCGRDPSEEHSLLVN
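Tet-induced TRPML1-DL cells loaded with Ca8 no-wash calcium dye were read kinetically on FDSS. Compound addition was followed by EC80 agonist 54-4 (4 uM final); inhibition was read over 110 s.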
ClpP mod = qHTS Assay for Activators of ClpP; hit rate 1.9% among 340,000; Potency, µM (doses to about 57.5 µM), inactives show at the highest dose activity change, negative = active; purified B. subtilis ClpP, FRET peptide cleavage, 20 min; AID 651965, 2013; active = well fitted falling curve with a large enough effect; inconclusive = small, poorly fitted or top-dose-only effect; inactive = no such curve, though single readings can be large or run the other way; note: potency is the fitted concentration of half-maximal effect; the source files actives as falling curves though it sought activators and does not explain the sign; nearly all actives have a fitted effect of over 65% in size; many hits overshoot -100%
Target sequence (P80244 whole entry, looked up): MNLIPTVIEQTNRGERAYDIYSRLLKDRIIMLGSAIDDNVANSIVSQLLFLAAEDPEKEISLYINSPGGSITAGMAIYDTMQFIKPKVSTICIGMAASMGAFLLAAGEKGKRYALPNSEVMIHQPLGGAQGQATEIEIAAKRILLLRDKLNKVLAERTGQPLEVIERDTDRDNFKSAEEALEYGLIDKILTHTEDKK
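Purified B. subtilis ClpP, 10 microg/mL final in Tris/HCl pH8 with KCl, BSA, glycerol and Tween-20, cleaved an Abz/nitrotyrosine-quenched decapeptide. Fluorescence (ex 320, em 430) was read at 0 and 20 min at room temperature. Delta was normalized to 5.8 microM ADEP and DMSO/no-enzyme controls.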
An asterisk follows results filed as active; ? = inconclusive. These rows are one share of the data, so the mix of outcomes need not match the whole.

Preview (2 entries):
Order of results – TRPML1 inh | ClpP mod
- COc1ccc2oc(=O)c(-c3nc4ccc(C)cc4[nH]3)cc2c1
 : 2.6 | -5.7%
- Cc1nc(N2CCCC2)c2c(C(=O)N3CCN(c4ccc(F)cc4)CC3)c(C)oc2n1
 : 1.5 | 0.7%

The list itself, from the start:
Order of results – TRPML1 inh | ClpP mod
- COc1ccc2oc(=O)c(-c3nc4ccc(C)cc4[nH]3)cc2c1
 : 2.6 | -5.7%
- Cc1nc(N2CCCC2)c2c(C(=O)N3CCN(c4ccc(F)cc4)CC3)c(C)oc2n1
 : 1.5 | 0.7%
- COc1ccc(-c2noc(CCC(=O)Nc3ccccc3Cl)n2)cc1OC
 : 15.6 | -0.4%
- COc1ccc2c(CN(C)Cc3ccccc3)cc(=O)oc2c1
 : 46.5 | -11.3%
- Cc1cc(C)cc(OCCSc2nc3ccc(NC(=O)c4ccc5c(c4)OCO5)cc3s2)c1
 : -15.8 | 3.9%
- CCC(C(=O)N1CCN(c2cc(C)ccc2C)CC1)n1nc(C)n2c(cc3occc32)c1=O (stereo not drawn)
 : 82.7 | -5.2%
- Cc1ccc(-c2nn3c(=O)cc(CN4CCN(C(=O)Nc5cccc(C(F)(F)F)c5)CC4)nc3s2)cc1
 : -11.5 | -3.8%
- Cn1ccc2cc(S(=O)(=O)N3CCN(C(=O)Nc4ccccc4F)CC3)ccc21
 : 16.8 | -1.1%
- O=C(NCc1ccccc1Cl)c1cnc(N2CCOCC2)c2ccccc12
 : -11.2 | -6.4%
- O=C(CC1N=C2c3ccccc3N=C(SCC(=O)Nc3ccc(F)cc3)N2C1=O)NCc1ccco1 (stereo not drawn)
 : -9.4 | -0.1%
- O=C(Nc1ccc2nc(SCC(=O)N3CCOCC3)sc2c1)c1ccccc1Cl
 : -21.8 | -2.0%
- CCN1CCN(c2ncc3c(n2)CC(c2ccccc2O)CC3=O)CC1 (stereo not drawn)
 : 11.3 | -1.4%
- COc1ccc(CNC(=O)CN2CCSc3ccccc32)c(OC)c1
 : -1.6 | -3.0%
- CCOc1ccc(CCNC(=O)c2ccc(Cn3c(=O)c4cccn4c4cccnc43)cc2)cc1
 : -7.3 | 4.5%
- COc1ccccc1NC(=O)CN(C)S(=O)(=O)c1ccc2c(c1)c(=O)n(C)c(=O)n2C
 : 37.0 | 0.1%
- Cc1ccc(OCC(=O)N(Cc2ccc(N(C)C)cc2)CC2CCCO2)cc1C (stereo not drawn)
 : 7.6 | -1.2%
- COc1ccc(NC(=O)C2=C(C)Nc3ncnn3C2c2ccccn2)cc1 (stereo not drawn)
 : 16.6 | -4.2%
- CC(C)OCCCn1c(=O)c2ccccc2n2c(-c3ccccc3)nnc12
 : -19.8 | -8.4%
- Cc1ccc(Cl)cc1NC(=O)C1CCCN(S(=O)(=O)c2c(C)noc2/C=C/N(C)C)C1 (stereo not drawn)
 : -3.5 | -1.6%
- Oc1c(C(c2ccccc2)N2CCC3(CC2)OCCO3)sc2nc(-c3ccco3)nn12 (stereo not drawn)
 : -19.7 | -4.0%

(cont.)
Order of results – TRPML1 inh | ClpP mod
- Cc1cc2n(n1)CCCN2C(=O)Nc1ccccc1F
 : 0.0 | -0.8%
- Cc1ccc(NC(=O)CN2C(=O)c3cccnc3Sc3ccccc32)cc1C
 : -2.1 | -22.0%
- Cc1cc2c(cc1S(=O)(=O)CCC(=O)N1CCCC(C)C1)OCC(=O)N2 (stereo not drawn)
 : -6.6 | 1.1%
- Cc1ccccc1S(=O)(=O)Cc1ccc(C(=O)N2CCN(c3cccc(Cl)c3)CC2)o1
 : 12.7 | -7.1%
- O=S1(=O)CC(N2CCN(CC3CC3)CC2)CN1CCc1ccccc1 (stereo not drawn)
 : -3.1 | 0.2%
- COc1cc(NC(=O)Cn2c(=O)cc(C)c3c(C)nn(-c4ccc(C)cc4)c32)cc(OC)c1
 : -8.0 | ?
- COc1ccc(-c2cn3nc(N4CCCC(C(=O)Nc5cc(C)cc(C)c5)C4)sc3n2)cc1 (stereo not drawn)
 : 16.3 | 1.7%
- Cc1c(Cl)cccc1-n1nc(C)c2c(C(=O)NCc3ccccc3)cc(C3CC3)nc21
 : 16.0 | 12.6µM*
- CC1CN(C(=O)Nc2ccc(C(=O)NCc3cccc(F)c3)cc2)c2ccccc2S1 (stereo not drawn)
 : 20.9 | -2.3%
- Cc1cc(C(=O)Nc2c(C)nc3ccccn3c2=O)ccc1[N+](=O)[O-]
 : -5.0 | 0.3%
- CCCCc1ccc(Nc2ncnc3c2cnn3-c2ccc(C)cc2)cc1
 : 17.3 | -6.4%
- COc1ccc(CNC(=O)Cn2c(=O)c3cccn3c3ccccc32)cc1
 : -12.8 | ?
- O=C(CSc1cn(CC(=O)N2CCOCC2)c2ccccc12)Nc1ccccc1C(F)(F)F
 : -6.1 | 0.8%
- Cc1cc(C)c2nc3sc(=Cc4ccc(-c5ccccc5C(=O)O)o4)c(=O)n3c2c1
 : -3.4 | -0.3%
- CC(C)c1ccc(S(=O)(=O)c2cnc(SCC(=O)Nc3ccc(F)cc3F)nc2N)cc1
 : 0.9 | -1.7%
- CCCn1c(=O)c2sccc2n2c(CCCC(=O)N3CCN(c4cccc(C)c4C)CC3)nnc12
 : 26.2 | -2.4%
- COc1ccc(C(=O)Cn2c(=O)c(-c3cc(C)ccc3NC(C)=O)nc3ccccc32)cc1
 : -1.8 | -2.7%
- COc1cc2c(cc1OC)C(COc1ccc(F)cc1)N(C(=O)c1ccc(S(=O)(=O)N3CCCC3)cc1)CC2 (stereo not drawn)
 : -10.4 | -5.4%
- CCC1CCCCN1C(=O)CSc1nc2c([nH]c3ccccc32)c(=O)n1-c1cccc(OC)c1 (stereo not drawn)
 : 50.4 | ?
- CCOC(=O)c1c(NC(C)=O)c2c3c(sc2n1Cc1cccc(Cl)c1)CCCC3
 : 16.6 | -3.6%

Additional compounds:
compound,TRPML1 inh,ClpP mod
Cc1ccc(Cc2c(-c3cccc(Cl)c3)nc3ccc(Cl)cn23)cc1,9.5,-25.2%
Cc1cccc(C(=O)NCC(c2ccc3c(c2)OCO3)N2CCN(c3ccccc3F)CC2)c1 (stereo not drawn),0.9,-4.2%
CCc1ccc(Sc2cc(C(=O)NCCCOC(C)C)c3ccccc3n2)cc1,2.5,-3.8%
COC(=O)c1ccc(NC(=O)CC2Nc3cc(C)c(C)cc3NC2=O)cc1 (stereo not drawn),-28.9,4.4%
CCOC(=O)c1cc(OC(=O)c2cc(OC)cc(OC)c2)n(-c2ccccc2)n1,1.0,-5.5%
Cc1cccc(C(=O)NC2(C(F)(F)F)N=C(c3ccccc3)N(C3CCCCC3)C2=O)c1 (stereo not drawn),-8.0,-0.2%
Cc1ccc(Cl)cc1N1CCN(C(=O)CN2C(=O)COc3ccc(S(=O)(=O)N4CCC(C)CC4)cc32)CC1,20.4,-0.8%
COc1ccc(Br)cc1CNC(=O)c1nn(-c2ccc(C)cc2)c(=O)c2c1c1ccccc1n2C,2.3,-4.6%
CCOC(=O)c1c(C)[nH]c(CCC(=O)Nc2c(Cl)cc(OC)cc2OC)c1C,-3.2,-5.0%
CCc1ccc(C2c3c(-c4ccccc4O)n[nH]c3C(=O)N2Cc2ccncc2)cc1 (stereo not drawn),-0.9,-1.6%

Look-ups from the results shown.
For TRPML1 inh, Cc1ccc(-c2nn3c(=O)cc(CN4CCN(C(=O)Nc5cccc(C(F)(F)F)c5)CC4)nc3s2)cc1 shows -11.5
For ClpP mod, CC(C)c1ccc(S(=O)(=O)c2cnc(SCC(=O)Nc3ccc(F)cc3F)nc2N)cc1 shows -1.7%
For TRPML1 inh, COC(=O)c1ccc(NC(=O)CC2Nc3cc(C)c(C)cc3NC2=O)cc1 (stereo not drawn) shows -28.9

Other results
compound,TRPML1 inh,ClpP mod
COc1cccc(-c2nc(S(=O)(=O)c3ccccc3)c(NCc3ccccc3)o2)c1,10.1,-1.8%
COc1ccc(S(=O)(=O)N(CC(=O)Nc2cc(C)ccc2OC)Cc2ccccc2)cc1,4.4,-7.4%
COc1ccccc1NC(=O)Cn1cc(C(=O)c2ccncc2)c(=O)c2cc(C)ccc21,-12.6,-3.5%
COc1cccc(C(=O)Nc2ccc(C(=O)OCc3cc(=O)n4cc(C)sc4n3)cc2)c1,20.7,1.9%
Brc1ccc(-c2csc(-c3nc(-c4ccc(Br)s4)cs3)n2)cc1,8.2,-1.0%
O=C(CC[C@H]1O[C@@H](n2ccc(=O)[nH]c2=O)[C@H](O)[C@@H]1O)N[C@H](Cc1ccccc1)C(=O)NCCCN1CCCC1=O,-13.4,-3.6%
CCC(CC)C(=O)N(C)c1c(C)nc2c(OCc3ccccc3C(=O)OC)cccn12,-8.8,2.8%
COc1ccc(OC)c(-n2nnc3c(sc4nc(C)c(Br)c(C)c43)c2=O)c1,-4.3,-2.2%
CCOCCCn1c(=N)c(S(=O)(=O)c2ccc(Cl)cc2)cc2c(=O)n3cccc(C)c3nc21,-17.8,-9.0%
O=C(Cn1c(=O)n(CCCS(=O)(=O)C2CCCCC2)c(=O)c2ccccc21)Nc1ccccc1C(F)(F)F,24.5,-12.7%

Following part.
compound,TRPML1 inh,ClpP mod
COc1ccc(-n2c(SC)nc3sc4c(c3c2=O)CCN(C(C)=O)C4)cc1,4.1,-1.0%
CCC1Oc2ccc(Cl)cc2N(CC(=O)NCCc2ccc(Cl)cc2)C1=O (stereo not drawn),11.0,0.5%
CCOc1ccc(N(CC)C(=O)c2cc3c(=O)oc4ccccc4c3s2)cc1,-1.6,0.9%
O=C(Nc1ccc(Cl)cc1)c1cc2c(Cl)nc3ccccc3c2s1,17.0,-2.7%
CCOC(=O)c1ccc(CN(Cc2ccc(Cl)cc2Cl)S(=O)(=O)c2ccc(F)c(C)c2)cc1,-4.2,0.4%
CC(C)CC(=O)Nc1ccc(C(=O)OCc2cc(=O)n3nc(C4CCCCC4)sc3n2)cc1,-11.0,-3.1%
Clc1ccc(-c2csc(=Nc3ccccc3)n2Cc2ccc3c(c2)OCO3)cc1,-1.9,1.9%
O=C(Nc1ccc2oc(-c3cccc(F)c3)nc2c1)c1ccc2ccccc2c1,16.3,?
Cc1cccc(Cn2c(=O)n(CCCC(=O)NCc3ccccc3Cl)c(=O)c3ccccc32)c1,6.0,?
CCC(CC)C(=O)N(C)c1c(C)nc2c(OCc3ccccc3C)cccn12,7.4,0.1%

More compounds follow.
compound,TRPML1 inh,ClpP mod
CCc1nc2ccc(C(=O)Nc3cc(-c4ccccc4)ccc3OC)cn2c1N(C)Cc1nccs1,16.8,-8.1%
COc1ccc(C2CC(=O)c3c([nH]c(C(=O)OCCOc4ccccc4)c3C)C2)cc1OC (stereo not drawn),14.5,-0.2%
O=C(NCc1ccc(F)cc1)c1cc(C2CCCCN2C(=O)OCCF)on1 (stereo not drawn),18.6,0.4%
CCN(CC)C(=O)C1CCCN(c2ncnc3c2c(-c2ccccc2)cn3-c2cccc(C)c2)C1 (stereo not drawn),4.5,?
CCOc1ccc(CCNC(=O)c2ccc(Nc3nc4ccccc4n4nnnc34)cc2)cc1OCC,-4.5,191.9%
COc1ccc(OC)c(-n2nnc(-c3nc(-c4cc(OC)c(OC)c(OC)c4)no3)c2C)c1,67.7,40.2%
CCOc1ccc(-n2nc3ccc(NC(=O)Cc4ccccc4)cc3n2)cc1,26.1,-22.6%
CCSc1ncc(Cl)c(C(=O)N(Cc2ccccc2)Cc2ccco2)n1,2.9,0.5%
Cc1cc(C)cc(NC(=O)Cn2c(=O)n(CC(=O)NCCc3ccccc3)c(=O)c3ccccc32)c1,13.3,-2.0%
O=C(CSc1ncc2c(n1)-c1cc(Cl)ccc1N(Cc1ccccc1)S2(=O)=O)NCc1ccccc1,11.4,13.4%

Next records follow:
compound,TRPML1 inh,ClpP mod
COc1ccc(CCNC(=O)CN(c2ccccc2)S(=O)(=O)N(C)C)cc1,20.1,-0.7%
Cc1ccc(OCc2nc(-c3ccc(C(=O)N4CCN(c5cc(Cl)ccc5C)CC4)cc3)oc2C)cc1,7.0,0.0%
CCOC(=O)c1nc(NCc2ccc(Cl)cc2)c2c(C)noc2n1,-0.8,-9.7%
CN(CC(=O)NCc1ccc(Cl)cc1)S(=O)(=O)c1ccc2[nH]c3c(c2c1)CCCC3,4.9,?
CCCn1c(SCc2nc(-c3ccccc3OCC)no2)nnc1-c1ccc(Cl)cc1,28.5,-1.9%
CCCC(=O)Nc1ccc2oc(-c3ccc(O)c(Br)c3)nc2c1,-1.7,3.9%
NS(=O)(=O)c1ccc(NC(=O)c2csnn2)cc1,10.2,-0.1%
COc1ccc(OCC(=O)Nc2nc(-c3ccc(Br)cc3)ns2)cc1,-12.7,-0.6%
CCCOc1ccc(/C=C/C(=O)Nc2sc(C)c(C)c2C(=O)OCC)cc1OC,-13.6,-3.1%
CC(=O)c1ccc(NC(=O)c2nc(-c3ccccc3)n(-c3ccccc3)n2)cc1,-13.7,0.2%
CCOc1ccc(-c2nonc2NC(=O)c2ccc(C)cc2)cc1OCC,-14.3,-4.9%
Cc1cc(C)cc(NC(=O)CCS(=O)(=O)c2cccc3nsnc23)c1,2.7,-0.8%
COc1ccc(Cl)cc1C(=O)NCC(c1ccc(N(C)C)cc1)N1CCOCC1 (stereo not drawn),-4.9,-0.3%
